Bioassay records deposited in PubChem by National Center for Advancing Translational Sciences (NCATS).
Sfp inh: blocks B. subtilis Sfp PPTase activity. Q9F4F7. Biochemical Sfp PPTase activity, qHTS. Potency, µM, inactives show max response, negative = inhibition, actives largely listed as inhibitors. 3.5% of 310,000 active; active means well fitted inhibition curve with a large enough effect; inconclusive means small, poorly fitted or top-dose-only effect, or another doubt; inactive means no such curve, though single readings can be large or run the other way;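 further: the enzyme is Sfp with the accession as filed and its product quenches rhodamine fluorescence; 0% = enzyme reaction without inhibitor and -100% = no enzyme wells; top concentration of the series not given in the record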
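Fluorescence-quenching assay with 15 nM Sfp, 5 uM rhodamine-CoA and 12.5 uM BHQ-2-labelled ybbR peptide in pH 7.6 Hepes/MgCl2 buffer. Enzyme was pre-incubated with compound for 15 min at room temperature. Rate was taken from the 30-min fluorescence change (525/598 nm).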
PINK1 expr mod: changes PINK1 expression; PINK1 immunofluorescence, high-content cytometry, 24 h; Potency, µM (highest dose often 76.6 µM), for inactives: at the highest dose activation (PINK1 increase), most hits filed as activators; 0.2% of 410,000 active; AID 624263; active = well fitted activation curve with a large enough effect; inconclusive = small, poorly fitted or top-dose-only effect; inactive = flat fitted curve, though single readings scatter; cell line not stated here;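 further: % of control where 0% means no effect; nearly all actives have a fitted effect of over 65% in size; a mitochondrial uncoupler was the plate control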
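Fluorescence from anti-PINK1 antibody, together with nuclear and cell stains, was scanned on a laser-scanning cytometer. Before staining, stable-line cells were incubated 24 hours with compounds at 5 concentrations; primary antibody 12 h at 10 degrees C.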
* marks the source's active call; other numbers are inactive results; u = inconclusive; & = joins results of further samples; ! = not active in a repeat; [ ] = dose if it differs, or a comment. Potency means the concentration at half of the fitted maximal effect. Only part of the results is shown; the hit share may differ from the screen's.

1) CNc1nc(-c2cccc(C#N)c2)nc2ccccc12
2) O=C(c1cnccn1)N1CCC2(CC1)CCN(c1ncccn1)CC2
3) N#Cc1cccc(-c2nccc(-n3ccnc3)n2)c1
4) CC(C)NC(=O)N1CCC2(CC1)CCN(S(C)(=O)=O)CC2
5) COc1ccc2[nH]cc(CCNc3nc(-c4cccc(C#N)c4)nc4ccccc34)c2c1
entry no.	1	2	3	4	5
Sfp inh	9%	24%	50µM*	16%	-3%
PINK1 expr mod	1.3%	0.6%	-0.4%	-0.9%	-0.2%

6) N#Cc1ccccc1-c1ccc2ncnc(NCc3cccs3)c2c1
7) COc1ccc(C(=O)N2CCC[C@@]3(CCN(CC(C)C)C3)C2)cc1
8) CC(C)NC(=O)N1CC[C@@]2(CCCN(C(=O)c3cccn3C)C2)C1
9) CNc1ncnc2ccc(-c3ccccc3CN(C)C)cc12
10) COc1ncc2nc(-c3ccc(F)cc3)c(=O)n(C)c2n1
entry no.	6	7	8	9	10
Sfp inh	-16%	15%	-5%	25%	4%
PINK1 expr mod	4.0%	1.9%	-0.5%	-0.3%	0.9%

11) c1ccc(CNc2cc(-c3ccoc3)ncn2)cc1
12) COc1ccccc1CN1CCC2(CC1)CCN(C(=O)c1cccn1C)CC2
13) CN(C)c1ccc(-c2ccc3ncnc(N(C)Cc4ccco4)c3c2)cc1
14) COc1cc(O)c2c(=O)c(O)c(-c3ccc(O)c(O)c3)oc2c1
15) O=C(c1ccco1)N1CCC[C@@]2(CCN(C(c3ccccc3)c3ccccc3)C2)C1
entry no.	11	12	13	14	15
Sfp inh	32µM*	11%	-16%	-16%&-18%	14%
PINK1 expr mod	1.4%	1.4%	10%	-0.1%	1.8%

16) O=C(Nc1cccc(F)c1)N1CCC2(CC1)CCN(C(=O)c1ccco1)CC2
17) O=c1c(-c2ccc(F)cc2)nc2cnc(N3CCNCC3)nc2n1Cc1cccs1
18) O=c1c(-c2cccc(Cl)c2)nc2cncnc2n1Cc1ccc(F)cc1
19) CN(C)c1nc(-c2cccc(C#N)c2)nc2ccccc12
20) COc1cc(OC)c2c(OC)c(-c3ccc4c(c3)OCO4)c(=O)oc2c1
entry no.	16	17	18	19	20
Sfp inh	26%	-22%	-20%	-26%	-18%
PINK1 expr mod	1.1%	1.0%	-0.3%	-0.7%	0.4%

Entries of single compounds as entered above. Values in the order: Sfp inh | PINK1 expr mod
O=C(Nc1cccc(F)c1)N1CCC2(CC1)CCN(C(=O)c1ccco1)CC2 is listed as 26% | 1.1%
CNc1nc(-c2cccc(C#N)c2)nc2ccccc12 is listed as 9% | 1.3%
O=C(c1cnccn1)N1CCC2(CC1)CCN(c1ncccn1)CC2 is listed as 24% | 0.6%
COc1ccccc1CN1CCC2(CC1)CCN(C(=O)c1cccn1C)CC2 is listed as 11% | 1.4%
COc1ccc2[nH]cc(CCNc3nc(-c4cccc(C#N)c4)nc4ccccc34)c2c1 is listed as -3% | -0.2%

(more compounds)
21) OB(O)c1cc2ccccc2s1
22) O=C(c1cc(C(F)(F)F)cc(C(F)(F)F)c1)N1CCC2(CCCN(Cc3nccs3)C2)CC1
23) CC(=O)N1CCC2(CC1)CCN(c1ccncc1)CC2
24) CN(C)c1ccc(-c2ccc3ncnc(N4CCNCC4)c3c2)cc1
25) COc1ccc(C(=O)N2CCC3(CC2)CCN(c2ccccn2)CC3)cc1
entry no.	21	22	23	24	25
Sfp inh	7%	21%	35%[activator]	2%	4%
PINK1 expr mod	1.8%	0.6%	-0.5%	3.5%	-0.6%

26) COc1ncc2nc(-c3cc(F)cc(F)c3)c(=O)n(-c3ccccc3)c2n1
27) COc1ccc(-c2nc3cnc(N4CCOCC4)nc3n(CCC#N)c2=O)cc1
28) COCCNc1ncnc2ccc(-c3cccnc3)cc12
29) CCNc1ncc2nc(C)c(=O)n(Cc3cccc(OC)c3)c2n1
30) O=S(=O)(c1ccccc1)N1CCC2(CCN(c3ccc(-c4ccccc4)cc3)CC2)CC1
entry no.	26	27	28	29	30
Sfp inh	2%	19%	7%	10%	22%
PINK1 expr mod	2.5%	13%	0.1%	-0.2%	-0.2%

31) CN(C)c1ccnc(-c2cccc(NS(C)(=O)=O)c2)n1
32) CN1CCN(c2ncc3nc(-c4cc(F)cc(F)c4)c(=O)n(CCC#N)c3n2)CC1
33) COc1ccc2[nH]cc(CCNc3cc(-c4ccccc4CN(C)C)ncn3)c2c1
34) N#Cc1cccc(-c2nc(NCCN3CCOCC3)c3ccccc3n2)c1
35) Cc1noc(C)c1-c1nccc(N2CCNCC2)n1
entry no.	31	32	33	34	35
Sfp inh	-9%	-29%	-4%	11%	-2%
PINK1 expr mod	-1.1%	0.3%	-1.3%	-0.2%	-0.7%

36) O=c1c(-c2cccs2)nc2cnc(N3CCOCC3)nc2n1Cc1ccc(F)cc1
37) CN(C)Cc1ccccc1-c1cc(-n2ccnc2)ncn1
38) COc1ccc2[nH]cc(CCNc3ccnc(-c4ccc(C(=O)N(C)C)cc4)n3)c2c1
39) COCC(=O)N1CCC2(CC1)CN(c1ccccc1)C2
40) O=C(Nc1cccc(F)c1)N1CCCC2(CCN(C(=O)c3cccc(F)c3)CC2)C1
entry no.	36	37	38	39	40
Sfp inh	30%	50µM*	5%	-15%	13%
PINK1 expr mod	8.2%	2.4%	9.1%	1.9%	-1.0%

41) O=c1c(-c2cc(F)cc(F)c2)nc2cncnc2n1Cc1ccccc1
42) COc1ccccc1CNc1ncnc2ccc(-c3ccccc3CN(C)C)cc12
43) O=C(Nc1cccc(C(=O)Nc2ccc(S(=O)(=O)O)c3cc(S(=O)(=O)O)cc(S(=O)(=O)O)c23)c1)Nc1cccc(C(=O)Nc2ccc(S(=O)(=O)O)c3cc(S(=O)(=O)O)cc(S(=O)(=O)O)c23)c1
44) COc1ccc(C(=O)N2CCC3(CC2)CN(c2ccccn2)C3)cc1
45) COc1ccc2[nH]cc(CCNc3ncnc4ccc(-c5ccc6c(c5)OCO6)cc34)c2c1
entry no.	41	42	43	44	45
Sfp inh	-7%	1%	45µM*!	7%	2%
PINK1 expr mod	1.3%	0.0%	-0.7%	-1.4%	0.3%

46) COc1ccc(-n2c(=O)c(-c3cccs3)nc3cnc(N4CCN(C)CC4)nc32)cc1
47) FC(F)(F)c1ccccc1-c1cc(N2CCNCC2)ncn1
48) Cc1noc(C)c1-c1cncnc1N1CCN(C)CC1
49) Cn1cccc1C(=O)N1CCC2(CCCN(c3ccccc3)C2)CC1
50) FC(F)(F)c1ccccc1-c1ccc2ncnc(NCCN3CCOCC3)c2c1
entry no.	46	47	48	49	50
Sfp inh	-16%	8%	5%	-7%	0%
PINK1 expr mod	-0.8%	0.2%	1.0%	-0.1%	0.1%

Some of the entries so far, with two lines to a compound.
The line under a structure holds: Sfp inh | PINK1 expr mod
(49) Cn1cccc1C(=O)N1CCC2(CCCN(c3ccccc3)C2)CC1
→ -7% | -0.1%
(50) FC(F)(F)c1ccccc1-c1ccc2ncnc(NCCN3CCOCC3)c2c1
→ 0% | 0.1%

(continued)
51) Cn1c(=O)c(-c2cc(F)cc(F)c2)nc2cncnc21
52) COc1cc2c(cc1OC)C(=O)OC2
53) COc1cccc(Cn2c(=O)c(-c3cc(F)cc(F)c3)nc3cnc(N4CCOCC4)nc32)c1
54) COCCNc1nc(-c2cccc(OC)c2)nc2ccccc12
55) NC1C(O)OC(CO)[C@@H](O)[C@@H]1O[C@H]1O[C@@H](C(=O)O)C(O)C(O)C1O (stereo partly specified)
entry no.	51	52	53	54	55
Sfp inh	27%	13%	11%	-12%	-2%
PINK1 expr mod	-0.3%	1.7%	0.1%	-0.7%	0.3%

56) Cc1noc(C)c1C(=O)N1CCC[C@@]2(CCN(c3ncccn3)C2)C1
57) N#Cc1ccc(CN2CCC3(CCNCC3)CC2)cc1
58) CS(=O)(=O)N1CCC2(CCN(Cc3ccncc3)CC2)CC1
59) Cc1ccccc1-c1cncnc1Nc1ccccc1
60) C1CCc2nnnn2CC1
entry no.	56	57	58	59	60
Sfp inh	11%	-7%	8%	-9%	-2%&16%&13%&-6%
PINK1 expr mod	0.9%	-0.8%	0.2%	-0.7%	0.4%

61) O=C(c1ccco1)N1CCC2(CC1)CCN(c1ccccn1)CC2
62) CN(C)c1ncc2nc(-c3cc(F)cc(F)c3)c(=O)n(C3CC3)c2n1
63) Cc1cnc(CNc2ncncc2-c2ccccc2C)cn1
64) CC(=O)N1CCC2(CC1)CCN(c1cccc(-c3ccccc3)c1)CC2
65) c1ccc2c(Nc3ccncc3)nc(-c3ccoc3)nc2c1
entry no.	61	62	63	64	65
Sfp inh	6%	6%	u	-27%	-28%
PINK1 expr mod	0.8%	-0.6%	0.7%	4.6%	-0.2%

66) COc1ccc(CNc2ccnc(-c3cccnc3)n2)c(OC)c1
67) Cn1c(=O)c(-c2ccc(Cl)cc2)nc2cnc(N3CCOCC3)nc21
68) COc1ccccc1CNc1ncncc1-c1ccoc1
69) COc1cccc(Cn2c(=O)c(CCc3ccccc3)nc3cnc(N4CCNCC4)nc32)c1
70) CN(C)c1ncnc2ccc(-c3ccoc3)cc12
entry no.	66	67	68	69	70
Sfp inh	u	8%	u	79µM*	0%
PINK1 expr mod	-0.5%	1.8%	-0.4%	1.7%	-0.6%

71) CN1CC[C@@]2(CCCN(S(=O)(=O)c3ccccc3)C2)C1
72) COCCn1c(=O)cnc2cnc(OC)nc21
73) COCC(=O)N1CCC2(CC1)CCN(C(c1ccccc1)c1ccccc1)CC2
74) COCCn1c(=O)c(-c2ccc(Cl)cc2)nc2cnc(Oc3ccc(OC)cc3)nc21
75) COCCn1c(=O)c(-c2cccs2)nc2cnc(Oc3ccc(OC)cc3)nc21
entry no.	71	72	73	74	75
Sfp inh	10%	6%	5%	8%	-11%
PINK1 expr mod	-0.7%	-0.2%	-1.0%	0.5%	0.4%

76) Cc1cccc(CNc2ncncc2-c2ccccc2CN(C)C)c1
77) O=C(c1cccc(F)c1)N1CCC2(CC1)CCN(c1ccccn1)CC2
78) CN(Cc1ccco1)c1ncnc2ccc(-c3ccccc3C#N)cc12
79) COC(=O)N1CCC2(CC1)CN(C(=O)Nc1ccc(OC)cc1)C2
80) O=C(Nc1cccc(F)c1)N1CC[C@@]2(CCCNC2)C1
entry no.	76	77	78	79	80
Sfp inh	10%	12%	-22%	6%	u
PINK1 expr mod	0.7%	1.6%	0.7%	1.5%	0.6%

81) CN(Cc1ccco1)c1cc(-c2cccc(NS(C)(=O)=O)c2)ncn1
82) Cc1ccccc1-c1ccc2ncnc(N3CCOCC3)c2c1
83) FC(F)(F)c1ccccc1-c1cncnc1-n1ccnc1
84) c1cncc(CNc2nc(-c3ccoc3)nc3ccccc23)c1
85) COc1ccccc1CN1CCCC2(CCN(C(=O)c3cnccn3)CC2)C1
entry no.	81	82	83	84	85
Sfp inh	-6%	-6%	9%	40µM*	20%
PINK1 expr mod	0.1%	5.4%	0.3%	-0.8%	-0.4%

86) COc1ccccc1CNc1nc(-c2ccc(N(C)C)cc2)nc2ccccc12
87) COc1ccc2[nH]cc(CCNc3cc(-c4cccc(C#N)c4)ncn3)c2c1
88) COc1ccc2[nH]cc(CCNc3ncncc3-c3ccccc3Cl)c2c1
89) CN(C)c1ccc(-c2cncnc2NCCc2cnc[nH]2)cc1
90) Nc1nc2c(nc(Sc3ccc(Cl)cc3)n2C2OC(CO)C(O)C2O)c(=O)[nH]1 (stereo unspecified)
entry no.	86	87	88	89	90
Sfp inh	16µM*	-9%	-20%	4%	-16%
PINK1 expr mod	1.3%	1.2%	-0.7%	-0.7%	0.6%

91) CC(=O)N1CCC[C@@]2(CCN(C(=O)Nc3ccccc3)C2)C1
92) C=C(C)C1Cc2c(ccc(C(=O)O)c2O)O1 (stereo unspecified)
93) O=C1C=CC(=O)c2c(O)c(Cl)c(Cl)c(O)c21
94) O=C(c1cnccn1)N1CCC2(CC1)CCN(c1ccccn1)CC2
95) CS(=O)(=O)N1CCC2(CC1)CN(C(c1ccccc1)c1ccccc1)C2
96) Cc1nc2cnc(N3CCN(C)CC3)nc2n(C2CC2)c1=O
97) O=C(c1cnccn1)N1CCC[C@@]2(CCN(Cc3cc(C(F)(F)F)cc(C(F)(F)F)c3)C2)C1
entry no.	91	92	93	94	95	96	97
Sfp inh	14%	26%	11µM*	15%	15%	12%	-26%
PINK1 expr mod	-0.9%	1.7%	-1.2%	0.6%	0.2%	1.9%	-0.2%
